Calb FLC – affects C. albicans growth with fluconazole | C. albicans CaCi-2 (fluconazole-resistant clinical isolate) + fluconazole, Alamar Blue growth, 48 h | growth inhibition, % (test concentration not listed) | 300,000 tested, 0.57% active;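 active = most replicates above 75%; inconclusive = exactly half above 75%; inactive = most below 75%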;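 note: all wells also contain fluconazole at 8 µg/ml as a sub-toxic cotreatment; 0% = median of DMSO wells and 100% = median of geldanamycin control wells; wells of about 8 µL received 7.5 nL stock; the first replicate is given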
RanGTP-Imp inh – inhibitors of RanGTP-importin-beta interaction, primary screen, biochemical, FRET, CFP-Ran, YFP-importin-beta, homogeneous | 300,000 tested, 1.1% active | inhibition, % (concentration not given with the values) | AID 2216 | cell-free CFP-Ran/YFP-importin-beta FRET ratio;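 active = most replicates above 15%; inconclusive = exactly half above 15%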;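 note: 0% = DMSO wells and 100% = Ran loaded with GDP instead of GTP; wells of about 40 µL received 100 nL stock; the first replicate is given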
LANA-H2A inh – blocks KSHV LANA binding to histone H2A/H2B. inhibition, % (no concentration beside the values). 320,000 tested, 0.6% active. Q9QR71. cell-free LANA-H2A/H2B peptide, fluorescence polarization; in the data active = inhibition mostly above about 10%, no sharp cut-off; inactive = mostly below about 6.7%;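 note: stock transfer was 7.5 nL into about 10 µL; 0% = median of vehicle wells and 100% = median of positive control wells; one replicate is shown; the record names a cut of 25% in any replicate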
Vif A3G – HIV-1 Vif–A3G interaction blockers – biochemical, TR-FRET, GST-Vif 1-94, biotin-A3G peptide, dose response retest, primary screen (AID 1117319) | TR-FRET GST-Vif / biotin-A3G peptide binding; higher % means a stronger effect; test concentration not given here; strong numbers were not always called active | one-dose inhibition, %; IC50 in µM for titrated hits | 260,000 tested, 0.57% active;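 active = above the screen mean plus three standard deviations and confirmed in dose response; inconclusive = results disagree or hit not tested in dose response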;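 note: Vif residues 1-94 fused to GST binding biotinylated APOBEC3G peptide 110-148; 0% = full assay without inhibitor and 100% = GST in place of GST-Vif; retest series ran down from 100 µM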
ALR H2O2 inh – human ALR oxidase inhibition via reduced H2O2 | P55789 | purified ALR, DTT oxidation, H2O2 HRP-luminol luminescence | inhibition, % (test concentration not listed) | 290,000 tested, 3.8% active;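 active = mean and each replicate at 75% or more; inconclusive = only one of the two met; inactive = neither met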;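 note: stock transfer was 7.5 nL into about 7.5 µL; 0% = neutral wells and 100% = wells with inactivated enzyme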
Beta2AR agonist – activates human beta-2 adrenergic receptor causing internalization; response, % (no concentration beside the values); 340,000 tested, 0.43% active; Am2.2-beta2AR cells, FAP receptor internalization, flow cytometry; reference of the scale not given here; P07550;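 active = response above a set limit, near 3 SD of response in nonfluorescent compounds, cut at about 42% in these data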;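 note: stock transfer was 100 nL into about 11 µL; a reference agonist was the positive control; negative values mostly stem from fluorescent compounds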
Target sequence (P07550 whole entry, looked up): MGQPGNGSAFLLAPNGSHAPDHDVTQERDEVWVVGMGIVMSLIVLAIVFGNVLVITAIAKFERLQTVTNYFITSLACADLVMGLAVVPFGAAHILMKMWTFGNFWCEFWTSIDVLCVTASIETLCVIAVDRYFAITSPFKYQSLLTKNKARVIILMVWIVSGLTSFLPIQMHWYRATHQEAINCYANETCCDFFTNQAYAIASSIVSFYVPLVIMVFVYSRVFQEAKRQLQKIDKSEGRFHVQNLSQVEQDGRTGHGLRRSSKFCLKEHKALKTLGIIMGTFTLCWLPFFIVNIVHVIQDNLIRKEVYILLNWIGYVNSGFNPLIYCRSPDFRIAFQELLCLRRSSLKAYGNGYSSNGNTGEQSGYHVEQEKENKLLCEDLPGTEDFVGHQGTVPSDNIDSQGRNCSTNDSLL
HNF4A DNA FP – change in binding of human HNF4 alpha to DNA | P41235 | HNF4a-FITC DNA binding, fluorescence polarization, 1 h | activity change, % at 10 µM | 360,000 tested, 0.3% active | AID 1224865; in the data active = activity change above about 30%, passing the limit was not always enough;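 note: controls were the assay level and a saturating level of protein; the project sought stronger binding though the title names inhibitors; some compounds called inactive have numbers as strong as hits; positive values seem to mean higher polarization but the record does not say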
Target sequence (P41235 whole entry, looked up): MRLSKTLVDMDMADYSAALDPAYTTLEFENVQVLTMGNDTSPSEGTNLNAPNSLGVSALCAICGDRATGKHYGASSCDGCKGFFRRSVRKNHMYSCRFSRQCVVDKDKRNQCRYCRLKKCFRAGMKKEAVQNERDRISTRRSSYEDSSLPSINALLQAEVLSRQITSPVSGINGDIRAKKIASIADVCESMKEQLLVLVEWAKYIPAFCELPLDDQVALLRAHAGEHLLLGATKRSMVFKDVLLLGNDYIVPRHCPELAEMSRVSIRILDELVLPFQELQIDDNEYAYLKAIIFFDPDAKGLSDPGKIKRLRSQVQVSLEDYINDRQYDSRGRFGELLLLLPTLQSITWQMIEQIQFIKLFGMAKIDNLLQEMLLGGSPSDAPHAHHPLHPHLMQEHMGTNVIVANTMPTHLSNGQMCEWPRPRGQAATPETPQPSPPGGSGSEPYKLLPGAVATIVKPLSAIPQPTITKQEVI
The depositor's hits bear a star; u = inconclusive; x = not tested or not shown; & = joins results of further samples. This is a random part of the collection. Share with any hit: about 6.3%.

smiles,RanGTP-Imp inh,Beta2AR agonist,Vif A3G,HNF4A DNA FP,ALR H2O2 inh,LANA-H2A inh,Calb FLC
CCc1ccc(NC(=O)CCn2c(=O)oc3ccccc32)cc1,-2.0,0,6%,1.9,x,4.0,2
CCCC(=O)c1cc(F)c(N2CCOCC2)cc1C,-2.3,-2,3%,4.4,0,-2.6,-4
CCCOc1ccc(N2C(=O)CC(NCc3ccncc3)C2=O)cc1 (configuration not stated),u,7,5%,2.3,-18,-4.0,-1
CC(C)(C)c1ccc(OCC(=O)NCCN2CCCC2)cc1,-4.0,-6,61%,-0.9,-41,-2.6,-7
O=C(NCc1ccc2c(c1)OCO2)c1nnc(Cc2ccc(Cl)cc2)o1,1.2,7,11%,-0.9,0,1.3,-18
O=C(c1ccccc1-c1ncc[nH]1)N1CCCC(Nc2ccc(F)cc2)C1 (configuration not stated),-0.8,3,u,-1.6,99*,-8.0,1
CC1(C)c2[nH]c3ccccc3c2C[C@H]2C(=O)N(Cc3ccc(F)cc3)C(=O)N21,4.6,12,x,-0.3,-7,-0.8,24
CC(C)CN(C(=O)COC(=O)c1ccc(Cl)c(N)c1)c1c(N)n(Cc2ccccc2)c(=O)[nH]c1=O,3.1,-1,-3%,7.2,-4,-5.6,4
CCSC1=NCCN1C(=O)c1ccc(S(=O)(=O)N(C)C)cc1,0.3,-4,-6%,2.7,2,-1.2,16
Nc1nc(SCC(=O)Nc2ccccc2-c2ccccc2)n[nH]1,u,-3,1%,3.5,-7,-8.4,-11
O=C(c1cc(-c2ccc(Cl)cc2)on1)N1CCc2ccccc2C1,2.9,-1,4%,6.2,-4,1.1,-7
Cc1ccc(NC(=S)N2CCC(c3ccccc3)C2)c(Cl)c1 (configuration not stated),-1.7,-3,-3%,-2.3,-1,1.0,12
O=C(Nc1ccc(N2CCCC2)cc1)c1cc(Br)ccc1Cl,2.1,17,3%,6.9,x,-0.5,-3
C=CCC1(CC=C)CCCN1C(=O)C1CCC(=O)N(CCc2ccccc2)C1 (configuration not stated),0.6,6,-2%,2.2,-16,0.1,-5
CC(C)C(c1nnnn1C1CCCCC1)N1CCc2ccccc2C1 (configuration not stated),-1.3,-4,1%,1.6,1,-5.8,-16
Cc1cccc(NC(=S)NNC(=O)c2sccc2C)c1,-0.9,-2,23%,1.8,28,-5.1,23
C/C(=N\Nc1cc(C)nc(-c2ccccc2O)n1)c1ccccc1,0.2,5,x,1.9,-8,4.3,-3
CCC1CCCCN1C(=O)Cn1c(=O)n(CCCC(=O)NCc2ccco2)c(=O)c2sccc21 (configuration not stated),3.9,2,x,-2.6,x,-4.6,6
O=C(CSc1nc2c(cnn2-c2cccc(Cl)c2)c(=O)[nH]1)NCCC1=CCCCC1,x,4,3%,-2.7,29,-2.1,x
CCOc1ccccc1NC(=O)C(c1ccccc1)N1CCN(CC(=O)N2CCCC2)CC1 (configuration not stated),x,-3,x,3.3,-7,-4.4,x
Clc1ccc(C2=NNC(=NCc3ccc4c(c3)OCO4)SC2)cc1,x,34,19%,2.0,0,5.5,x
Cc1cccc(OCC(=O)OCC(=O)N2CCN(C(=O)c3ccco3)CC2)c1C,5.3,3,8%,2.6,x,3.5,-7
Cc1ccc(OCCn2ccc(=O)[nH]c2=O)cc1C,0.4,-1,-5%,3.3,-16,-1.5,0
CCCCN1C(=O)CC(Sc2ccccc2C(=O)O)C1=O (configuration not stated),-0.5,6,4%,-1.0,-1,-0.2,3
COc1cccc(C(=O)CSc2nc3cccnc3n2C)c1,-0.7,-8,x,-2.7,u,-5.2,10
CCCCNC(=O)C1c2ccccc2Oc2ccccc21,22*,-5,-3%,-0.7,-4,0.1,11
COCCN(C(=O)C(C)C)c1nnc(-c2ccc(C)cc2)s1,-1.5,-9,-3%,3.0,x,1.3,-32
CCOC(=O)c1ccccc1NC(=O)COC(=O)CSCC(=O)Nc1cc(C)on1,2.8,6,2%,-2.0,8,-3.6,9
O=C(Cc1ccccc1)Nc1ccc(NC(=O)c2ccccc2)nc1,-1.1,-11,-5%,2.4,-9,-0.6,-2
O=C(N/N=C/c1ccc(Br)s1)c1c[nH]c2ccccc12,0.4,12,29%,2.7,70,0.5,-4
Cc1ccc(CNC(=O)c2ccc(NC(=O)CCS(=O)(=O)c3cccs3)cc2)cc1,0.1,0,1%,-0.4,-3,-1.0,16
Clc1ccc(Cl)c(OCCN2CCCC2)c1,-3.8,-4,x,-0.2,1,-1.1,-12
O=C(c1ccc2ccccc2n1)N1CCN(c2ccccc2)CC1,-5.5,-3,7%,-2.3,40,1.1,2
COC(=O)Cc1c(O)ccn(Cc2ccc3c(c2)OCO3)c1=O,-3.5,-7,1%,2.8,-14,2.9,-3
N#CC1=C(S)N(c2ccccc2)C(c2ccc(-c3ccc(Cl)c(Cl)c3)o2)NC1=O (configuration not stated),1.4,7,-8%,6.4,x,-1.3,4
O=C(c1cccs1)N1CCC(N2CCN(c3ccccc3)CC2)CC1,1.0,16,32%,-1.4,57,0.9,-1
COc1cccc(/C(O)=C/c2nc3ccc(C(=O)NCCc4ccc(Cl)cc4)cc3[nH]c2=O)c1,32*,-32,x,7.0,x,x,17
Cc1ccnc(NS(=O)(=O)c2ccc(N3C(=O)c4ccccc4C3=O)cc2)n1,2.2,-1,x,-3.4,-5,-4.9,u
CC1CCN(C(=S)Nc2ccc(SC(F)F)cc2)CC1,0.1,-8,-2%,-1.1,-12,-3.6,4
COc1ccc2[nH]c(C)c(CCN(Cc3cccs3)C(=S)Nc3cccc(F)c3)c2c1,-363,9,u,-4.1,-15,-0.7,8
CCN(C(=O)CSc1nc2n[nH]c(C)c2c(=N)n1-c1ccc(Cl)c(C)c1)c1cccc(C)c1,1.7,23,x,-3.8,x,0.4,44
C=CCN1C(=O)c2ccc(C(=O)OCC(=O)Nc3ccc(S(N)(=O)=O)cc3)cc2C1=O,6.9,-9,7%,-1.5,-13,2.4,x
CN(Cc1ccno1)Cc1cn(C)nc1-c1ccc(Oc2ccccc2)cc1,-1.7,0,4%,-0.8,1,3.1,-5
COC(=O)c1ccc(NC(=O)CSc2nnc(COc3ccc4c(c3)CCCC4)o2)cc1,1.0,-3,u,-0.5,-10,3.6,36
CCCCSCc1ccc(C(=O)O)o1,u,-2,-3%,-2.0,-7,-0.1,-1
CCOc1ccc(Nc2ccnc3cc(Cl)ccc23)cc1,-3.5,4,x,0.8,-3,2.8,64
CCOc1cc2c(cc1/C=C/c1noc(C)c1[N+](=O)[O-])OC(C)C2 (configuration not stated),-16,-766,x,106,5,9.3,-2
COC(=O)c1ccc2c(=O)[nH]c(COC(=O)c3cccc(S(=O)(=O)N4CCOCC4)c3)nc2c1,3.8,1,5%,-0.1,-2,2.9,3
O=c1[nH]c(/C=C\c2ccc(O)cc2)nc(O)c1[N+](=O)[O-],u,1,x,-5.5,97*,3.8,0
O=[N+]([O-])c1ccc(Cl)c(CN2CCSCC2)c1,-1.9,-20,-5%,2.8,-4,0.3,14
CCOC(=O)c1ccc(N2C(=O)c3n[nH]c(-c4ccco4)c3C2c2cccc([N+](=O)[O-])c2)cc1 (configuration not stated),1.1,85*,25%,-4.6,-2,-3.3,u
CCN(CC(=O)Nc1c(F)cccc1F)C(=O)c1ccc(S(=O)(=O)N2CCCCCC2)cc1,x,0,-3%,-1.3,x,x,x
CCS(=O)(=O)N1CCC(C(=O)N2CCN(Cc3ccccc3)CC2)CC1,-4.6,3,1%,0.0,-17,-11,-7
O=C(O)C(Cc1ccccc1[N+](=O)[O-])N1C(=O)c2ccccc2C1=O (configuration not stated),x,3,2%,-1.2,x,x,x
O=C(NC1(C(F)(F)F)NC(=O)N(c2ccc(F)cc2)C1=O)c1ccncc1 (configuration not stated),1.7,-3,x,-1.7,23,0.1,-3
Oc1ccccc1/C=N/[n+]1ccccc1,8.5,-6,-5%,5.7,-22,2.5,-7
CCCNC(=O)c1cn(CC)c2cc(N3CCN(C)CC3)c(F)cc2c1=O,-0.2,8,7%,1.4,-3,5.8,-4
N#Cc1ccc(S(=O)(=O)N2CCN(Cc3cccs3)CC2)cc1,x,3,x,-1.1,x,6.1,x
CC(=O)c1ccc(NC(=S)NCc2ccco2)cc1,u,3,9%,-2.2,-7,-2.2,-12
CCOc1ccc(OCC)c(NC(=O)CCCN2C(=S)NC(C)(C)CC2C)c1 (configuration not stated),-2.1,0,x,-2.5,-11,-7.5,u

The results go on:
smiles,RanGTP-Imp inh,Beta2AR agonist,Vif A3G,HNF4A DNA FP,ALR H2O2 inh,LANA-H2A inh,Calb FLC
C=CCn1c(SCC(=O)c2ccc(OC)cc2)nnc1-c1cc2cccc(OC)c2o1,6.0,-4,-17%,-1.5,-23,5.3,1
CCn1cc(C(=O)OCC(=O)NCc2ccc3c(c2)OCO3)c(=O)c2ccc(C)nc21,5.5,-4,-4%,0.3,x,1.2,-14
COc1ccc(CN(C)CC(O)COC(c2ccccc2)c2ccccc2)c(OC)c1OC (configuration not stated),-2.1,3,-1%,0.7,-7,2.7,1
Cc1ccc(Cl)c(Cn2cnc3c(cnn3C(C)(C)C)c2=O)c1F,x,3,x,-0.1,-3,6.2,x
O=C(NCc1ccco1)C(=O)c1cn(CC(=O)N2CCCCCC2)c2ccccc12,x,1,13%,-0.6,-6,0.2,-1
Cc1cc(C)c2cc(C(=O)N3CCN(c4ncccc4C(F)(F)F)CC3)[nH]c2c1,-2.4,-2,-27%,3.0,x,-6.5,-3
Cc1cc(C)c(C(=O)Nc2ccc(Br)c(C(F)(F)F)c2)c(C)c1,-4.1,24,-7%,-1.7,1,3.1,1
Cc1ccc(OCC(=O)NNC(=O)C(=O)N2CCCC2)c(C)c1,4.8,9,x,3.3,-1,-7.8,20
COc1ccc(NC(=O)CN2CCN(S(=O)(=O)c3ccc(F)cc3)CC2)cc1Cl,-0.8,6,-2%&2%,-2.7,x,-1.1,-7
O=S(=O)(Nc1ccc(S(=O)(=O)N2CCCC2)cc1)c1ccc(F)cc1F,x,6,11%,2.7,-4,-1.7,x
O=C(c1ccccc1)N1N=C(c2ccccc2)CC1c1ccc2nccnc2c1 (configuration not stated),u,0,x,1.7,-7,0.8,-1
N#C/C(=C/c1ccc(CNC(=O)C(=O)Nc2cc(Cl)cc(Cl)c2)o1)C(=O)NCc1cccnc1,0.3,-5,9%,0.8,-4,2.4,-9
O=c1c2ccccc2nc(COc2ccccc2)n1/N=C/c1ccc(O)cc1O,6.6,2,-6%,2.3,77*,-1.3,57
O=C(CCS(=O)(=O)c1ccc(Cl)cc1)Nc1ccc(N2CCOCC2)cc1,3.9,-2,26%,3.3,x,-2.2,-8
Cc1cc(C)c(OCC(=O)N(Cc2cccs2)C2CCS(=O)(=O)C2)c(C)c1 (configuration not stated),3.0,-10,x,-0.4,-2,4.8,4
Cc1cccc(/C(N)=N/OC(=O)COc2ccc(Cl)cc2)c1,x,5,x,0.0,-4,0.9,x
COc1ccccc1CNC(=O)C/C(C)=N/NC(=O)Cc1ccc(OC)c(OC)c1,-1.6,-2,-1%,2.3,2,2.0,0
COCCn1c(=S)[nH]c2cc(C(=O)NCC3CCCO3)ccc2c1=O (configuration not stated),-1.8,1,0%,4.2,98*,-4.3,0
O=C(NCc1ccc(Cl)cc1)c1ccc2nc[nH]c2c1,1.3,1,27%,2.3,x,x,-6
